GLA inh pH 4.5 = inhibitors of human alpha-galactosidase A at pH 4.5 | P06280 | purified enzyme, 4-MU-alpha-Gal fluorescence, pH 4.5 | activity change, negative = inhibition, % at 105 µM | 230,000 tested, under 10 active | AID 1467; inconclusive = small, poorly fitted or top-dose-only inhibition, or a rising curve; inactive = flat fitted curve, though single readings scatter; no compound was filed as active;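 further: 0% = full activity with enzyme and -100% = basal without enzyme; dose as in the result columns while the protocol names 77 µM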
Rango complex inh = inhibitors of Rango-importin beta complex formation; Q14974; Rango CFP/YFP FRET sensor + importin beta, 45 min; Potency, µM (series often up to 92.2 µM), inactives show at the highest dose inhibition of complex formation; 0.031% of 340,000 active; AID 540263; active = rising FRET ratio curve, often small or poorly fitted; inconclusive = mostly compound fluorescence or quenching in the first reads; inactive = flat curves in all reads;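 further: potency means the concentration at half of the fitted maximal effect; 0% = DMSO wells and 100% = buffer wells lacking importin beta; nearly all actives have a fitted effect of over 15% in size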
Target sequence (Q14974 whole entry, looked up): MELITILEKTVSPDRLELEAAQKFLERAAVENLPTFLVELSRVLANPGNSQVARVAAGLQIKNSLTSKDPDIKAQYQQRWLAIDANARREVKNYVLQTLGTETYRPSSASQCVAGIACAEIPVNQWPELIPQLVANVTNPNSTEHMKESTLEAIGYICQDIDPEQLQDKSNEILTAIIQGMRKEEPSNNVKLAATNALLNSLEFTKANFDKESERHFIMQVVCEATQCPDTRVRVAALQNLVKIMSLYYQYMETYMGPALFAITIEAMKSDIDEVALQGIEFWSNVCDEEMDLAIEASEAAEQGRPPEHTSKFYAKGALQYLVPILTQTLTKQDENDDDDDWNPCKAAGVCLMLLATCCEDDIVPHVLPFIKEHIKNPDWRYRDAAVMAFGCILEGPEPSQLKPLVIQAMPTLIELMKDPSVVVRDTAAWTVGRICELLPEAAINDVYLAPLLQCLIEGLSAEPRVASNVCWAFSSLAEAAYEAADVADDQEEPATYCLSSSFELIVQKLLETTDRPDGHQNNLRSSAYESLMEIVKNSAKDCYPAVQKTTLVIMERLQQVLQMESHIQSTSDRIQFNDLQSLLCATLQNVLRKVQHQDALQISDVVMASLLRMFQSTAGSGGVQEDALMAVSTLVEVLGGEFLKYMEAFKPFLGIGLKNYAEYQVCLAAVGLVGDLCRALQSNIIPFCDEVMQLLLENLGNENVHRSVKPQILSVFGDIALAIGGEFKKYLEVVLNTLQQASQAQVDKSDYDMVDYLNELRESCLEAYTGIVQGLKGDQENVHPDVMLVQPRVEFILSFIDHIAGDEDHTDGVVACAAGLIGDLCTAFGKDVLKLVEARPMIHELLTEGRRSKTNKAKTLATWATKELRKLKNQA
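Inhibition scored from the CFP 486 nm/YFP 530 nm FRET ratio 45 min after adding 0.125 microM importin beta to 50 nM Rango biosensor preincubated 5 min with compound (room temperature, PBS with DTT, Tween-20, BSA). No-importin wells as positive control.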
miR-21 FLuc = raises the signal of a miR-21 reporter; HeLa miR-21 FLuc reporter, luciferase, 48 h; Potency, µM (top dose mostly 38.3 µM), inactives show at the top dose reporter change, positive = more light; 340,000 tested, under 10 active; AID 2288; active = well fitted rising curve with a large enough effect; inconclusive = small, poorly fitted or top-dose-only effect; inactive = no such curve, though single readings can be large or run the other way;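 further: % of control where 0% means no effect; miR-21 action dims this reporter so a rising signal means less miR-21 action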
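HeLa cells endogenously expressing miR-21, stably carrying CMV-driven firefly luciferase with a downstream miR-21 binding site, 2000 cells/well. Titrations up to approximately 40 uM, 48 hours; luciferase luminescence read.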
Rango dissoc inh = inhibition of RanGTP-driven Rango-importin beta dissociation; O95149+P62826; Biochemical FRET Rango-importin beta, RanGTP-induced dissociation; 0.071% of 340,000 active; Potency, µM (series often up to 46.1 µM), for the others: top-dose activity change, negative = inhibition; AID 540253; active means falling FRET ratio curve, often poorly fitted, with flat reads before Ran was added; inconclusive means other falling curves, or compound fluorescence or quenching; inactive means flat or rising ratio curve;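 further: potency means the concentration at half of the fitted maximal effect; % of control where 0% means no effect; nearly all actives have a fitted effect of over 45% in size; -100% = wells without RanGTP and RCC1; the record marks most hits as doubtful in a second field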
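FRET read at 45 min, room temperature: inhibitors block the CFP/YFP signal rise when RanGTP (0.6 uM Ran, 2 mM GTP, 0.2 uM RCC1) frees Rango (0.1 uM) from importin beta (0.25 uM). Pre-read after 5 min compound exposure flags interference.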
* marks the source's active call; other numbers are inactive results; ? = inconclusive; . = not tested or not shown; & = joins results of further samples.

Every second line gives: GLA inh pH 4.5	Rango complex inh	miR-21 FLuc	Rango dissoc inh
O=C(NCCc1cccc(F)c1)C1CCC(=O)N(CCCc2ccccc2)C1 (stereo unspecified)
    .	-1.4%	-14%	-11%
CN(CC(=O)Nc1ccc(F)c(F)c1F)C(=O)c1ccc2c(c1)S(=O)(=O)N=C1CCCCCN12
    .	0.1%	.	-5%
CCN(CC)C(=O)CSc1ncnc2sc(C)c(C)c12
    7	0.6%	-13%	-7%
CSc1nc(C)cc(Oc2ccccc2)n1
    7	2.6%	-1%	2%
CCC(=O)NCCc1nc2cc(NC(=O)c3ccco3)ccc2n1C
    .	0.2%	-47%	-12%
COCCNC(=O)C(C)N(c1ccc(OC)cc1)S(C)(=O)=O (stereo unspecified)
    0	-0.4%	0%	-1%
Cc1ccc(C)c(-c2nc3cc(N)ccc3o2)c1
    -7	-2.9%	1%	0%
Cn1cnc(S(=O)(=O)Nc2ccc3c(c2)OCCO3)c1
    -1	-0.1%	0%	1%
COc1ccc(/C=N/NC(=O)COc2ccccc2-c2ccccc2)cc1
    -8	2.9%	20%	-12%
C=CCC[C@H](Cc1ccc(F)cc1)C(=O)OC[C@@H](NC(=O)[C@H](CC=C)CC(=O)NCCO)C(C)(C)C
    .	-0.8%	.	-14%
O=[N+]([O-])c1ccc(CN2CCSCC2)cc1
    -8	4.0%	-2%	9%
O=C(Cn1nc(C(=O)O)c2ccccc2c1=O)Nc1cc(Cl)ccc1-n1cncn1
    .	-0.2%	.	1%
OCC1(Cc2ccccc2)CCN(C2CCN(c3ccccc3F)CC2)CC1
    -11	0.6%	2%	26%
N#Cc1cnn2c1nc(N1CCCCC1)c1ccccc12
    -1	-4.6%	-1%	13%
CCOCCCNC(=O)c1cn(C)c2ccc(S(=O)(=O)N(C)C3CCCCC3)cc2c1=O
    -5	.	0%	.
CCOC(=O)C1Sc2ccccc2NC1=O (stereo unspecified)
    4	4.0%	-1%	-2%
CC(C)CC(=O)N1CCN(S(C)(=O)=O)CC1
    -11	-3.3%	-5%	10%
Nc1cc(Br)c(N)c(Br)c1
    6	0.6%	-1%	17%
COc1ccccc1/C=N/NC(=O)c1nnn(-c2nonc2N)c1CN(C)c1ccccc1
    .	0.1%	-4%	40%
O=C1OCCC1Sc1nc2ccccc2s1 (stereo unspecified)
    2	-2.2%	-2%	0%
CCC(=O)NC(Nc1c(C)n(C)n(-c2ccccc2)c1=O)C(Cl)(Cl)Cl (stereo unspecified)
    -2	-2.3%	-1%	0%
O=C(NCC1CCCO1)c1cc2c([nH]c3ccccc32)c(-c2cccc(Cl)c2)n1 (stereo unspecified)
    .	-1.2%	29%	-3%
COc1cc(CN2CCC(N3CCC(C(=O)N4CCCC4)CC3)CC2)cc2c1OCO2
    5	-4.6%	0%	15%
COc1ccc2cc(C(=O)N/N=C/c3cc(OC)c(OC)c(OC)c3)[nH]c2c1
    .	7.0%	8%	13%
COc1ccc(-c2ccc3oc(-c4ccc(OC)cc4)c(C#CCCO)c3c2)cc1
    .	7.3%	.	10%
CCOc1ccc(CC(=O)Nc2sc(Cc3ccccc3)cc2C(N)=O)cc1OCC
    -11	?	-4%	-8%
O=Cc1cn(CC(=O)N2CCCc3ccccc32)c2ccccc12
    2	3.9%	1%	9%
O=C(Cc1ccccc1)N1CCN(c2ccccc2F)CC1
    .	-0.3%	-9%	-8%
COc1ccc(-c2c(C)cc3oc(=O)cc(-c4ccccc4)c3c2C)cc1F
    -16	4.6%	.	-1%
Cc1ccccc1NC(=O)Cn1c(=O)n(Cc2ccccc2)c(=O)c2c(C)c(C)sc21
    7	?	-5%&0%	5%
CC1CCCC(NC(=O)CSc2ncnc3ccccc23)C1C (stereo unspecified)
    .	-6.5%	.	?
COc1ccc(-n2c(Cc3cccn3C)nnc2SCC(=O)NC2CCCCC2)cc1
    8	-0.9%	-2%	10%
CCOc1cc(/C=N/NC(N)=O)cc(Br)c1OCc1ccccc1F
    1	4.2%	-5%	-5%
CC(=O)Nc1cccc(C(=O)N(Cc2ccccc2)Cc2ccccc2)c1
    .	-0.5%	2%	-11%
Cn1c(=O)c(C(=O)CN2CC(=O)Nc3ccccc32)c(N)n(Cc2ccccc2)c1=O
    2	-1.6%	-2%	25%
O=P(O)(C(O)c1ccccc1)C(O)c1ccccc1 (stereo unspecified)
    .	4.6%	.	56%
CC(C)CN(C(=O)COc1cccc(-n2cnnn2)c1)C1CCS(=O)(=O)C1 (stereo unspecified)
    .	1.2%	0%	3%
Brc1ccc(OCCOc2cccc3cccnc23)cc1
    6	?	-28%	13%
CC1=C(C(=O)OCc2ccccc2)C(c2ccc3ccccc3c2)NC(=O)N1CCCCCC(=O)O (stereo unspecified)
    -6&-9	2.2%	-16%	2%
CCN(C(=O)CN1CCN(c2ccc(OC)cc2)CC1)c1c(N)n(Cc2ccccc2)c(=O)[nH]c1=O
    -6	-3.9%	-4%	5%

Two entries from above in a different format.
molecule	GLA inh pH 4.5	Rango complex inh	miR-21 FLuc	Rango dissoc inh
OCC1(Cc2ccccc2)CCN(C2CCN(c3ccccc3F)CC2)CC1	-11	0.6%	2%	26%
N#Cc1cnn2c1nc(N1CCCCC1)c1ccccc12	-1	-4.6%	-1%	13%

More entries:
Every second line gives: GLA inh pH 4.5	Rango complex inh	miR-21 FLuc	Rango dissoc inh
COC(=O)CC1C(=O)NCCN1C(=O)CSc1nnc(Nc2ccc(C)cc2)s1 (stereo unspecified)
    9	0.2%	-8%	-1%
Cc1cc(C)c2nc(-c3ccccn3)cc(C(=O)Nc3ccc(S(=O)(=O)Nc4onc(C)c4C)cc3)c2c1
    -2	-0.9%	-1%	2%
CC1(C)CC(=O)C2=C(C1)NC(=O)CC2c1ccc(N(CCC#N)CCC#N)cc1 (stereo unspecified)
    -4	-2.0%	-6%	8%
CCCc1cc(=O)oc2cc(C)c(CN3CCCC3)c(O)c12
    4	?	-17%	-28%
CCOC(=O)C1(Cc2cccc(Cl)c2)CCCN(C(=O)CCOC)C1 (stereo unspecified)
    9	4.2%	-17%	3%
COc1ccc(CN2C(=O)c3ccccc3C2=O)cc1C(=O)Nc1ccccc1N1CCOCC1
    -2	0.9%	1%	40%
Cc1occc1-c1nnc(SCC(=O)N2CCCC(C)C2)o1 (stereo unspecified)
    .	-5.6%	.	21%
Cc1ccc(S(=O)(=O)Nc2cccc(S(=O)(=O)N3CCCC3)c2)cc1C
    .	-1.6%	.	9%
CCCCn1nc2cc(C(=O)NC3CCc4ccccc43)ccc2c1OCC (stereo unspecified)
    6	-0.4%	1%	1%
CC(C(=O)N1CCCC1)N1CCN(S(=O)(=O)c2ccc(OC(F)(F)F)cc2)CC1 (stereo unspecified)
    .	0.9%	.	5%
Cc1ccccc1-c1noc(-c2ccccc2C(=O)NCC2CCCO2)n1 (stereo unspecified)
    -3	-1.7%	0%	27%
Oc1ccc(Nc2nc(-c3ccccc3)nc3ccccc23)cc1
    .	4.4%	18%	-8%
Cc1cccc(OCCNC(=O)CSc2ccc(C(F)(F)F)cc2[N+](=O)[O-])c1
    -7	-0.9%	-1%	-8%
COc1ccccc1CCC(=O)OCC(=O)NC1CCCCC1
    .	-0.9%	1%	-3%
O=C(Cc1c(F)cccc1Cl)OCC(=O)N1CCN(c2ccccc2)CC1
    .	2.0%	.	13%
CC(NS(=O)(=O)c1ccccc1)C(=O)Nc1ccc(S(N)(=O)=O)cc1 (stereo unspecified)
    -17	-0.6%	1%	-10%
CC(=O)c1c[nH]c(C(=O)NCC2CCCO2)c1 (stereo unspecified)
    7	3.1%	-2%	-17%
COC(=O)c1c(C)[nH]c(C(=O)CC#N)c1C
    -1	2.9%	-2%	-5%
CC(=O)Nc1cccc(NC(=O)CSc2ccc(-c3cccnc3)nn2)c1
    5	-2.4%	18%	2%
Cc1ccc(NC(=O)Cn2nc(-c3ccccc3)nc2-c2ccccc2)c(C)c1
    -7	0.8%	-2%	-9%

A draw from above in order of molar mass, smallest number first.
Every second line gives: GLA inh pH 4.5	Rango complex inh	miR-21 FLuc	Rango dissoc inh
CC(NS(=O)(=O)c1ccccc1)C(=O)Nc1ccc(S(N)(=O)=O)cc1 (stereo unspecified)
    -17	-0.6%	1%	-10%
Cc1cccc(OCCNC(=O)CSc2ccc(C(F)(F)F)cc2[N+](=O)[O-])c1
    -7	-0.9%	-1%	-8%
CC(C(=O)N1CCCC1)N1CCN(S(=O)(=O)c2ccc(OC(F)(F)F)cc2)CC1 (stereo unspecified)
    .	0.9%	.	5%

Remaining list, next part:
Every second line gives: GLA inh pH 4.5	Rango complex inh	miR-21 FLuc	Rango dissoc inh
CC(C)NC(=O)C(C)N1CCN(S(=O)(=O)c2ccc3ccccc3c2)CC1 (stereo unspecified)
    .	0.6%	3%	27%
COc1ccc(-c2ccc(NC(=O)c3ccc(Br)o3)cc2)nn1
    .	-0.3%	.	9%
COc1ccc(CCNC(=O)C(=O)NCCOc2ccccc2Cl)cc1OC
    -8	7.9%	-7%	19%
O=C1N=C(N2CCCCC2)S/C1=C\c1ccc(Br)cc1
    .	-1.3%	-12%	8%
O=C(C/C=N/OCc1ccc(Cl)cc1Cl)c1ccc(Cl)cc1
    -10	-1.3%	-17%	23%
c1ccc(Oc2ccc(-c3ccn[nH]3)cc2)cc1
    -8	2.0%	-51%	8%
O=C(/C=C/c1ccc(Cl)cc1)Nc1cc(S(=O)(=O)N2CCOCC2)ccc1N1CCOCC1
    .	5.2%	.	-7%
O=C(Nc1cccc(C(=O)Nc2cccc(Br)c2)c1)c1ccccc1
    .	-1.7%	11%	18%
COc1ccccc1OCCNC(=O)CCNC(=O)c1ccccc1Cl
    .	3.9%	-3%	2%
COCCNC(=O)c1ccc(CS(=O)(=O)c2cccc(C(F)(F)F)c2)o1
    .	-4.3%	0%	16%
Cc1ccc(OCC(=O)Nc2ccc(N3CCN(C(=O)c4ccco4)CC3)cc2)cc1
    -6	-1.6%	1%	5%
COc1cc2cc(CN(CCCN3CCOCC3)C(=O)Nc3ccccc3F)c(=O)[nH]c2cc1OC
    8	0.4%	3%	-4%
Cc1ccc(C(=O)OCC(=O)NCC(F)(F)F)cc1C
    -8	-1.0%	-6%	-2%
CC(c1ccncc1)C(C)c1ccncc1 (stereo unspecified)
    .	-1.0%	.	18%
Cc1cc(C(=O)NNC(=O)c2c(-c3c(Cl)cccc3Cl)noc2C)no1
    .	-0.3%	0%	-3%
Cc1cc(C)c(C(=O)Cn2nc(C)c([N+](=O)[O-])c2C)cc1C
    -3	-1.5%	-2%	9%
COC(=O)Nc1ccc(S(=O)(=O)N2CCCCC2)cc1
    -25	-1.8%	2%	0%
COc1ccc(CC(=O)N/N=C/c2cc([N+](=O)[O-])cc(Br)c2O)cc1
    .	2.1%	-5%	0%
CNc1oc(-c2ccc(F)cc2)nc1S(=O)(=O)c1ccccc1
    .	0.0%	4%	-3%
CC(C)n1cc(/C=N/NC(=O)COc2cccc3cccnc23)c2ccccc21
    -2	-1.2%	-10%	2%
Cc1ccc(S(=O)(=O)c2nc(N3CCOCC3)sc2Cl)cc1
    -2	-2.9%	-10%	2%
Nc1cc2c(cc1Cl)-c1ccccc1C2
    .	-0.2%	.	19%
Cc1nnc(NC(=O)C2CCCN2S(=O)(=O)c2ccc(Cl)cc2)s1 (stereo unspecified)
    3	0.5%	0%	-1%
Cc1ccc(NC(=O)CSc2ccccc2NC(=O)c2ccccc2Cl)cc1Cl
    -3	0.0%	-12%	-2%
COC(=O)c1ccc(/C=C2\N=C(SC)SC2=O)cc1
    -7	-4.1%	-1%	-21%
Cc1cccc(C(=O)Nc2ccc(C(=O)N/N=C/c3ccco3)cc2)c1
    .	4.0%	.	-3%
CSCc1cc(N(C)C)nc(SCc2ccc(Cl)cc2Cl)n1
    3	6.7%	-6%	0%

Source: PubChem

This is a subset (hit frequency here may not be typical).
